Compound activity (PubChem)
Cruzain noTriton: blocks cruzain activity in detergent-free assay | P25779 | purified cruzain, Z-FR-AMC fluorescence, no detergent | Potency, µM, without a hit: max response, negative = inhibition, hits mostly inhibitors | hit rate 2.3% among 200,000; active means well fitted curve in the direction sought with a large enough effect; inconclusive means small, poorly fitted or top-dose-only effect, or another doubt; inactive means no such curve, though single readings can be large; an effect the other way counts as inactive or inconclusive;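 further: plate controls were enzyme without inhibitor for no effect and buffer without enzyme for full effect; nearly all actives have a fitted effect of over 40% in size; top concentration of the series not given in the record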
Target sequence (P25779 123-467 limits assumed): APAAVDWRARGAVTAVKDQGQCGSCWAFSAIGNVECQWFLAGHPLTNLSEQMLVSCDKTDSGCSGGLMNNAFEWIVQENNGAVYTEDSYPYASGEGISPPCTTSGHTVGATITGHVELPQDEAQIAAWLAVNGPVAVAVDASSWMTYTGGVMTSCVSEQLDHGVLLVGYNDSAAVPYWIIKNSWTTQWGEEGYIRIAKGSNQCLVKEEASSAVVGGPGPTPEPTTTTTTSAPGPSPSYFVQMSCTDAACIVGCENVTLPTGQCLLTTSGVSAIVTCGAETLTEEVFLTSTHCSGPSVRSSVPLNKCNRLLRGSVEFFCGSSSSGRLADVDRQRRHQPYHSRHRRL
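Purified cruzain at 1.5 nM, pre-incubated 15 min with compound at room temperature in 100 mM sodium acetate pH 5.5, 5 mM DTT, 0.00005% Triton X-100. Reaction started with 2 uM Z-FR-AMC; AMC fluorescence increase over 60 s gives rate.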
Lassa entry inh: Lassa virus entry inhibition; AID 540256; Potency, µM (top dose mostly 37.9 µM), without a hit: top-dose activity change, negative = inhibition, usual class: inhibitors; hit rate 1.2% among 300,000; Lassa virus pseudotype entry inhibition, cell reporter; control for the full effect not named in the record; active means well fitted inhibition curve with a large enough effect; inconclusive means small, poorly fitted or top-dose-only effect, or effect the other way; inactive means flat fitted curve, though single readings scatter; tested in HEK293 cells; further: on the % scale 0 is the no-effect control and ±100 the full control effect; nearly all actives have a fitted effect of over 50% in size; luciferase read-out
NS1 function inh: influenza NS1 inhibition; S. cerevisiae slowed by influenza A NS1, growth recovery by OD600; Potency, µM (doses to about 46.1 µM), inactives show top-dose activity, positive = more growth; hit rate 0.4% among 270,000; AID 2326; further: actives are rising curves; nearly all actives have a fitted effect of over 50% in size
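OD600 was taken as the measure of yeast growth restored by compound in an NS1-expressing S. cerevisiae strain. Cells had been washed out of glucose medium and diluted 1:100 into galactose -URA medium, pH 6.0.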
MARV entry inh: inhibitors of Marburg virus binding or cell entry. Marburg virus pseudotyped entry inhibition, cell reporter; control for the full effect not named in the record; about a third of the inactives were read at about 46 µM. Potency, µM (doses to about 37.8 µM), for inactives: at the highest dose activity change, negative = inhibition, actives largely listed as inhibitors. hit rate 1.8% among 300,000. AID 540276; active = well fitted inhibition curve with a large enough effect; inconclusive = small, poorly fitted or top-dose-only effect, or effect the other way; inactive = flat fitted curve, though single readings scatter; tested in HEK293 cells; about a fifth of its hits are not listed in these tables; further: on the % scale 0 is the no-effect control and ±100 the full control effect; luciferase read-out
2A StopGo: lowers the luciferase signal of an FMDV 2A StopGo reporter; human cells with a luciferase reporter of 2A StopGo recoding; control for the full effect not named in the record; Potency, µM (titrated, usually from 57.9 µM), inactives show at the top dose signal change, negative = less light; hit rate 1.2% among 410,000; AID 1159524; active = well fitted falling curve with a large enough effect; inconclusive = small, poorly fitted or top-dose-only effect; inactive = no such curve, though single readings can be large or run the other way; tested in HEK293T cells; further: on the % scale 0 is the no-effect control and ±100 the full control effect; nearly all actives have a fitted effect of over 45% in size; luciferase light after 4 h
RE007 growth inh: less growth of the S. pombe RE007 Vpr strain; S. pombe RE007 Vpr strain, BacTiter-Glo ATP luminescence, 24 h; control for the full effect not named in the record; Potency, µM (titrated, usually from 92.2 µM), for inactives: at the top dose activity change, negative = less growth; hit rate 0.21% among 360,000; active = well fitted falling curve with a large enough effect; inconclusive = small, poorly fitted or top-dose-only effect; inactive = no such curve, though single readings can be large or run the other way;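 further: on the % scale 0 is the no-effect control and ±100 the full control effect; nearly all actives have a fitted effect of over 50% in size; the assay follows cell death caused by Vpr and the record does not say whether a fall means rescue or toxicity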
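Fission yeast RE007 carrying one integrated HIV-1 vpr copy, seeded at OD 0.01 in PMG+AL medium with 23 nL pinned compound. Grown 24 h at 30 degrees; viability read by BacTiter-Glo luminescence after 5 min.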
SARS PLpro yeast: inhibitors of SARS-CoV papain-like protease in yeast; S. cerevisiae expressing SARS-CoV PLpro, growth rescue; control for the full effect not named in the record; Potency, µM (highest dose often 32.9 µM), inactives show at the highest dose activity, positive = growth rescue; hit rate 0.19% among 330,000; AID 485353; further: 0% is about no effect; nearly all actives have a fitted effect of over 55% in size; growth read by luminescence after 48 h
Cruzain inh Det: blocks cruzain activity in presence of Triton detergent; P25779; purified cruzain, Z-FR-AMC fluorescence, 0.01% Triton; Potency, µM, inactives show max response, negative = inhibition, hits mostly inhibitors; hit rate 0.43% among 200,000; AID 1478; active means well fitted curve in the direction sought with a large enough effect; inconclusive means small, poorly fitted or top-dose-only effect, or another doubt; inactive means no such curve, though single readings can be large; an effect the other way counts as inactive or inconclusive;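 further: plate controls were neutral wells for no effect and buffer without enzyme for full effect; nearly all actives have a fitted effect of over 40% in size; top concentration of the series not given in the record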
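15 min RT preincubation of 1.5 nM cruzain with compound, then 2 uM Z-FR-AMC added; kinetic AMC fluorescence, 60 s delta. Triton X-100 0.01%, pH 5.5.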
* = called active by the depositor; ? = inconclusive; / = not tested or not shown; & = joins results of further samples; [ ] = dose if it differs, or a comment. Unless noted, the call rests on the fitted dose curve; in most records, active means well fitted rising curve with a large enough effect; inconclusive means small, poorly fitted or top-dose-only effect; inactive means no such curve, though single readings can be large or run the other way. Potency means the concentration at half of the fitted maximal effect.

SMILES	Cruzain noTriton	Lassa entry inh	NS1 function inh	MARV entry inh	2A StopGo	RE007 growth inh	SARS PLpro yeast	Cruzain inh Det
CCO[C@H]1OC(C(=O)NCc2ccccc2)=C[C@@H](C2CC2)[C@@H]1CCCO	/	/	7%	/	-8%	8%	-1%	/
Cc1ccc(CNC(=O)CN(c2ccc(C)cc2)S(=O)(=O)c2c(C)n[nH]c2C)cc1	/	/	-4%	/	-1%	1%	2%	/
CCN1CCN(CCNC(=O)Cn2c(=O)c3cccn3c3ccc(F)cc32)CC1	/	16%[46.1 µM]	1%	?	-14%	-2%	4%	/
Cn1cc(/C=N/Nc2ccccc2)c2ccccc21	/	/	-4%	/	52%[activator]	-6%	-2%	/
CCN(CC)c1ccc2cc(C(N)=O)c(=N)oc2c1	/	23%	-1%	?	3%	15%	1%	/
Cc1cccn(Cc2c(Cl)cccc2Cl)c1=O	/	-22%[46.1 µM]	/	3%[46.1 µM]	3%	-8%	/	/
COc1cc(C(c2nnnn2C2CCCC2)N2CCN(C(=O)c3ccco3)CC2)cc(OC)c1OC (stereo not given)	/	?	-2%	16%[46.1 µM]	2%	-17%	-2%	/
NC(=O)c1ccccc1N/C=C/C(=O)c1ccc(Cl)cc1	-8%	?	-75%	?	-1%	-6%	4%	1.9%
CN(C(=O)CSc1cccc[n+]1[O-])C1CCCCC1	/	11%	/	14%	-2%	-14%	11%	/
COc1ccc(C)cc1S(=O)(=O)N(C)CC(=O)NCc1ccco1	?	2%	?	?	-8%	17%	0%	-0.2%
Cc1ccc(S(=O)(=O)CCC#N)cc1	/	-5%	-2%	1%[46.1 µM]	1%	5%	1%	/
CSCC[C@H](NC(=O)CC(C)(C)C)c1nc2ccccc2[nH]1	-6%	-1%	0%	3%	21%	10%	3%	-0.5%
COc1ccc(/C=C(\NC(=O)c2ccco2)C(=O)Nc2ccc(C(C)=O)cc2)cc1	/	18%	2%	?	-3%	-3%	-3%	/
Cc1cccc(C(=O)Nc2cc(S(=O)(=O)N3CCOCC3)ccc2N2CCCCC2)c1	/	?	/	?	-3%	-6%	-3%	/
COc1ccc(Cn2nnnc2C(c2cc3cccc(C)c3[nH]c2=O)N2CCOCC2)cc1 (stereo not given)	-5%	-12%	-5%	-4%	-19%	-8%	5%	-1.6%
O=C(O)c1cccc(N/N=C/c2ccc(OC(F)(F)F)cc2)c1	/	?	2%	?	25µM*	-9%	-1%	/
O=C(Nc1ccc(S(=O)(=O)NC2CCCC2)cc1)c1cnccn1	2%	?	-7%	-33%	4%	-1%	14%	0.4%
CC1(C)C(C=C(Cl)Cl)C1C(=O)N(Cc1ccccc1Cl)C1CCS(=O)(=O)C1 (stereo not given)	17%	?	-10%	?	-28%	7%	-10%	-5.6%
CCOc1cc2sc(N3CCC(C(=O)Nc4ccc(CC)cc4)CC3)nc2cc1Br	2%	/	/	?	36%[activator]	/	/	-0.4%
Cc1ccsc1/C=N/NC(=O)c1ccc2c(c1)OCCO2	/	?	-38%	3.2µM*	-15%	6%	-1%	/
O=C(Cn1c(=O)n(Cc2ccco2)c(=O)c2ccccc21)Nc1ccc(Cl)cc1Cl	-15%	?	/	1%[46.1 µM]	-4%	/	/	-17%
ON(CCc1ccccn1)CCc1ccccn1	/	1%	/	19%	51%[activator]	5%	/	/
Cn1cc(C(=O)NCc2ccccc2Cl)c(=O)c2cc(S(=O)(=O)N3CCCCCC3)ccc21	4%	1%[46.1 µM]	/	4%[46.1 µM]	-22%	/	/	-2.6%
O=C(Nc1ccccc1OC(=O)N1CCOCC1)N1CCOCC1	-7%	2%	6%	18%	7%	6%	13%	5.2%
COc1ccc(C2/C(=C(\O)c3ccc4c(c3)OCCO4)C(=O)C(=O)N2c2nc(C)c(C(C)=O)s2)cc1 (stereo not given)	/	/	13%	/	-4%	4%	3%	/
Next section
SMILES	Cruzain noTriton	Lassa entry inh	NS1 function inh	MARV entry inh	2A StopGo	RE007 growth inh	SARS PLpro yeast	Cruzain inh Det
COc1ccccc1NC(=O)c1cc2c(=O)n(C)c3ccccc3c2n1C	/	/	-44%	/	-30%	6%	-4%	/
CN1CCN(Cc2nc3ccccc3c(=O)n2Cc2nc(-c3ccc4ccccc4c3)cs2)CC1	4%	?	10%	?	?	9%&20%	-10%	-8.6%
Cc1nc2cc3sc(C)nc3cc2s1	/	24%[46.1 µM]	/	?	-2%	3%	-4%	/
O=C(Nc1cnn(Cc2ccccc2)c1)c1cc2nc(-c3ccco3)cc(C(F)(F)F)n2n1	?	3%	-21%	-20%&-20%	?	-1%	7%	-0.3%
CC1(C)CNC(=O)CC(C)(C)N1O	-4%	4%	3%	5%	11%	-2%	1%	2.5%
O=C(Nc1ccccc1)c1ccc(S(=O)(=O)N2CCOCC2)cc1	-1%	2%	-2%	10%	0%	-13%	?	3.1%
COc1ccc(-n2c(=O)c3sc4ccccc4c3n(CC(=O)Nc3cccc(C)c3)c2=O)cc1	?	18%[46.1 µM]	/	4%[46.1 µM]	37%[activator]	/	/	-2.5%
Cc1cccc(NS(=O)(=O)c2cccc(C(=O)N3CCCC(C(F)(F)F)C3)c2)c1 (stereo not given)	/	-11%	/	-19%	19%	-4%	10%	/
N#CC1=C(N)Oc2n[nH]c(-c3cccs3)c2C1c1ccncc1 (stereo not given)	/	12%	/	12%	0%	3%	1%	/
Cc1ccc(S(=O)(=O)c2nc(-c3ccccc3)oc2SCC(=O)NCC2CCCO2)cc1 (stereo not given)	/	-34%[46.1 µM]	14%	?	3%	-3%	1%	/
CCOc1ccc(Cl)cc1S(=O)(=O)N1CCN(c2ccc(F)cc2)CC1	0%	?	-70%	-36%	4%	5%	-14%	-4.2%
Cc1nc2ccccc2c(=O)n1-c1ccc(NC(=O)C(F)(F)F)cc1	0%	-11%[46.1 µM]	/	/	7%	/	/	-1.3%
COc1ccc(C(=O)NCCN=C2NS(=O)(=O)c3ccccc32)cc1	/	9%	7%	7%[46.1 µM]	-4%	1%	3%	/
Nc1nc(-c2ccccc2)[nH]c(=O)c1N	-10%	5%	21%	?	1%	-2%	4%	-6.6%
Cc1ccc(CNC(=O)C(Cc2ccccc2)n2cccc2)cc1 (stereo not given)	/	?	-31%	1%	-4%	4%	-5%	/
O=C(CSc1nnc(-c2cccs2)n1-c1ccccc1)NCc1ccc2c(c1)OCO2	-6%	2%	-54%	2%	-7%	27%	-11%	-0.4%
CCN(CC)S(=O)(=O)c1cccc(C(=O)N2CC(O)CC2C(=O)OC)c1 (stereo not given)	4%	14%	6%	6%	-14%	0%	-2%	12%
COc1ccc(C(CCNCc2ccc(OC(C)C)cc2)c2ccccc2OC)cc1 (stereo not given)	/	/	4%	/	?	-1%	-4%	/
Cc1nc2ccccc2n1CC(O)c1ccccc1 (stereo not given)	/	8%[46.1 µM]	-13%	-8%[46.1 µM]	-24%	1%	1%	/
Cc1c(C(=O)O)oc2c1-c1nn(Cc3ccc(Cl)cc3)cc1CC2	10%	7%[46.1 µM]	/	13%[46.1 µM]	-20%	/	/	-9.6%
Cc1ccc(-c2cc(C(=O)NCCCN3CCOCC3)c3ccc(Cl)c(C)c3n2)cc1	/	/	-1%	/	-27%	8%	-2%	/
CC(NC(=O)c1ccc(Cl)cc1Cl)C(c1ccccc1)N1CCOCC1 (stereo not given)	/	14%	/	7%[46.1 µM]	14%	7%	-2%	/
Nc1cc2c(cc1Cl)-c1ccc(Cl)cc1C2=O	/	16%	/	20%	17%	12%	/	/
Cc1cc(SCCOc2ccc(Br)cc2)nc(N)n1	0%	12%	-47%	-36%	-16%	-28%	5%	-7.1%
O=C(O)COc1ccccc1C=NNC(=O)c1ccccc1NS(=O)(=O)c1cccs1	/	3%[46.1 µM]	/	0%[46.1 µM]	1%	2%	-7%	/
Next part
SMILES	Cruzain noTriton	Lassa entry inh	NS1 function inh	MARV entry inh	2A StopGo	RE007 growth inh	SARS PLpro yeast	Cruzain inh Det
O=C(Cn1nnc2ccccc21)OCC(=O)c1ccccc1	-2%	-1%	2%	14%	-10%	6%	-11%	0.3%
CCn1c(SCc2cccc(OC)c2)nc2ccccc2c1=O	/	?	-52%	?	-29%	4%	-9%	/
CCOC(=O)c1ccc(COC(=O)CNS(=O)(=O)c2ccccc2)cc1	/	0%	-2%	6%	8%	1%	-2%	/
COc1cccc(/C=N\NC(=O)c2ccc(Cn3cc(Br)c([N+](=O)[O-])n3)o2)c1O	/	6.3µM*	28%	4µM*	10%	-8%	5%	/
CC1CCCN(c2nc3c(c(=O)[nH]c(=O)n3C)n2CCCc2ccccc2)C1 (stereo not given)	-4%	/	-57%	/	?	9%	?	-4.9%
Cc1ccc(S(=O)(=O)CCN2C=CC(C(F)(F)F)=NCC2)cc1	/	-5%	7%	?	35%[activator]	9%	1%	/
O=C(CCN1CCN(C/C=C/c2ccccc2)CC1)Nc1ccccc1F	-5%	0%	-6%	?	-29%	-3%	8%	0.3%
Cc1ccc(NC(=O)c2ccc(S(=O)(=O)N3CCOCC3)cc2)cc1	/	?	2%	9%[46.1 µM]	12%	-11%	2%	/
CC(C)CC(=O)Nc1cc2nn(-c3ccccc3)nc2cc1Cl	3%	?	-5%	?	10%	-8%	13%	3.0%
O=C(CC1N=C2c3ccccc3N=C(SCc3ccccc3F)N2C1=O)NCc1ccc2c(c1)OCO2 (stereo not given)	-17%	22%[46.1 µM]	/	/	44%[activator]	/	/	-3.1%
Cc1noc(C)c1C(=O)Nc1ccccc1-c1ccccc1	-14%	1%	-7%	?	0%	-6%	7%	0.4%
Cc1ccccc1C(=O)Nc1ccc2nc(SCCOc3ccccc3)sc2c1	5%	9%[46.1 µM]	/	-3%[46.1 µM]	-1%	/	/	-2.1%
COc1ccc(NC(=O)CCn2c(=O)c3cccn3c3ccccc32)cc1	/	?	-2%	?	-16%	-6%	-1%	/
Fc1ccc(CN2CCN(c3ncccn3)CC2)cc1	9%	9%	5%	-16%	/	9%	1%	-8.2%
